Source: PubChem
LANA-nucl inh – inhibitors of KSHV LANA-nucleosome binding, primary screen, biochemical, fluorescence polarization, FITC-LANA1-23, chicken nucleosomes; AID 720717, 2013; actives 0.3% (n = 51,000); z-score (concentration not given with the values); FITC-LANA1-23 / chicken nucleosome fluorescence polarization; stronger effect = lower value;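 active means both repeat wells score below -2 in polarization z-score versus plate sample wells, excluding overly bright wells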;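 further: 100 nL library stock added to about 30 µL; numbers are from one replicate; some results filed as inactive read as strong as hits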
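Assay system: FITC-LANA peptide and chicken nucleosomes; input: 240 nM purified chicken nucleosomes (480 nM peptide binding sites), final; also added: 50 nM FITC-LANA1-23 probe; medium: TEN-BT buffer, pH 7.5; doses: pin-transferred compound, 100 nL; times: 10–45 min, room temperature; technique: fluorescence polarization; replication: duplicates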
BasE inh – BasE siderophore enzyme inhibitors, primary screen, biochemical, Acinetobacter baumannii ATCC 17978, fluorescence polarization. inhibition, % (test concentration not listed). actives 0.1% (n = 84,000). purified BasE, fluorescence polarization binding displacement. AID 485350, 2010;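 active means both replicates above 25% with normal brightness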;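 further: 0% = negative plate control signal and 100% = positive plate control signal; stock transfer was 100 nL into about 30 µL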
* = called active by the depositor; . = no result given; & = joins results of further samples.

SMILES | LANA-nucl inh | BasE inh
COc1ccc2nc(NC(=O)COC(=O)c3cccc(S(=O)(=O)N4CCOCC4)c3)sc2c1 | . | 0.4
O=C(NCc1ccco1)c1ccc(S(=O)(=O)N2CCCC2)cc1 | . | -2.4
COc1ccc2cc(CCNC(=O)C3CCCCC3)c(=O)[nH]c2c1 | 0.34 | -1.7
COC(=O)c1ccc(N)cc1O | -0.025 | .
CC1=C(C(=O)Nc2ccc(Br)cc2F)C2(CCN(S(C)(=O)=O)CC2)OC1=O | . | 1.4
CN(c1ccccc1)S(=O)(=O)c1cccs1 | -0.4 | 3.5
O=C(Cn1cnc2scc(-c3ccccc3)c2c1=O)NCc1ccco1 | 0.57 | -3.6
NS(=O)(=O)c1ccc(-n2cccc2/C=C2/C(=O)NN(c3ccccc3)C2=O)cc1 | . | 0.6
CN(C(=O)CNC(=O)c1ccc(Cl)cc1)C1CCCCC1 | 1.1 | -2.6
Cc1nn(-c2ccccc2)c(N)c1N=Nc1cccnc1 | . | 1.4
CC(NS(=O)(=O)c1cc(C(F)(F)F)ccc1Cl)C(=O)N1CCN(c2ccccc2)CC1 (stereo unspecified) | . | -0.9
O=c1[nH]c(CN2CCOCC2)nc2ccccc12 | . | 0.5
CCCN(CCC)C(=O)c1sc2nc(-c3ccc(OC)cc3)cn2c1C | 0.18 | -8.9
O=S(=O)(c1ccc2c(c1)OCCO2)N1CC=C(c2ccccc2)CC1 | -0.06 | .
CN(C)CCNc1ncnc2ccccc12 | -0.91 | 0.6

Exported with two lines to a compound: part of the list above.
The line under a structure holds: LANA-nucl inh | BasE inh
CC1=C(C(=O)Nc2ccc(Br)cc2F)C2(CCN(S(C)(=O)=O)CC2)OC1=O
→ . | 1.4
CN(c1ccccc1)S(=O)(=O)c1cccs1
→ -0.4 | 3.5
O=C(Cn1cnc2scc(-c3ccccc3)c2c1=O)NCc1ccco1
→ 0.57 | -3.6
NS(=O)(=O)c1ccc(-n2cccc2/C=C2/C(=O)NN(c3ccccc3)C2=O)cc1
→ . | 0.6
CN(C(=O)CNC(=O)c1ccc(Cl)cc1)C1CCCCC1
→ 1.1 | -2.6
Cc1nn(-c2ccccc2)c(N)c1N=Nc1cccnc1
→ . | 1.4
CC(NS(=O)(=O)c1cc(C(F)(F)F)ccc1Cl)C(=O)N1CCN(c2ccccc2)CC1 (stereo unspecified)
→ . | -0.9

(listing goes on)
SMILES | LANA-nucl inh | BasE inh
CCOC(=O)c1nn(-c2ccccc2)c(N=Nc2ccc3c(c2)OCO3)c1O | . | 3.0
COc1ccc(C(=O)N2C(=O)N(c3ccccc3)C3(C)CC2c2ccccc2O3)cc1 (stereo unspecified) | -0.011 | 3.1
CC(=O)NCC(=O)N1CCN(Cc2ccc3c(c2)OCO3)CC1 | . | 1.5
Cc1cc2ccccn2c1C(=O)c1nc(N2CCN(c3ccc(F)cc3)CC2)ncc1Cl | . | 0.4
CCN1CCN(CCNC(=O)C2CCC(Cn3c(=S)[nH]c4ccccc4c3=O)CC2)CC1 (stereo unspecified) | 0.13 | -7.4
Cc1ccccc1NC1CC(C)Nc2c(C)cccc21 (stereo unspecified) | . | -0.6
COc1ccc(C/C(C)=N/NC(=O)c2cccs2)cc1 | . | 1.1
CCOC(=O)c1ccc(N2COc3ccc4c5c(c(=O)oc4c3C2)CCC5)cc1 | -0.055 | 1.1
CC(C)C1C(=O)Nc2ccc(S(=O)(=O)NCc3ccccc3)cc21 (stereo unspecified) | . | -4.9
Cc1cccn2cc(CSc3nc4ccccc4o3)nc12 | . | 0.6
Nc1ccc2c(c1)C(=O)N(CCC(=O)O)C2=O | -0.99 | 5.9
Cc1ccc(CNC(=O)CN2C(=O)C3(OCCCO3)c3ccccc32)cc1 | 0.39 | 1.7
CCSC1(SCC)N=C(N)C2(C#N)C(c3cccc(OC)c3)C12C#N (stereo unspecified) | -0.26 | -2.6
Cc1ccc(N2C(=O)N(Cc3c(C)noc3C)C(=O)C2C)cc1 (stereo unspecified) | . | -0.8
CCOC(F)(C(N)=O)C(F)(F)F (stereo unspecified) | -0.016 | 2.8

Reformatted: results already given.
compound	LANA-nucl inh	BasE inh
Cc1ccc(CNC(=O)CN2C(=O)C3(OCCCO3)c3ccccc32)cc1	0.39	1.7
CCSC1(SCC)N=C(N)C2(C#N)C(c3cccc(OC)c3)C12C#N (stereo unspecified)	-0.26	-2.6
Cc1ccc(N2C(=O)N(Cc3c(C)noc3C)C(=O)C2C)cc1 (stereo unspecified)	.	-0.8

(listing goes on)
SMILES | LANA-nucl inh | BasE inh
O=C(CCn1nnc(-c2cccs2)n1)NCc1ccccc1Cl | 1.8 | -4.0
O=C(Nc1nccs1)c1ccccc1NS(=O)(=O)c1ccc(F)cc1 | 2 | -1.8
Cc1ccc(-n2c(SCC(=O)NC(C)(C)C)nc(O)cc2=O)cc1 | 2.6 | -23
CCOC(=O)c1c(O)cc2ccccc2c1O | 0.24 | -1.2
CC(C)(C)NC(=O)c1cnc2n(c1=O)CCS2 | -1.1 | 1.9
CCOC(=O)c1ccc2c(c1)nc(SCc1nc3ccccc3s1)n2CC | . | -4.4
C=CCn1nnnc1SCC(=O)c1ccc(Cl)c(Cl)c1 | -1.1 | -3.4
COc1cc(C)nc(NN)n1 | -0.22 | 2.1
CS(=O)(=O)Nc1cccc(C2=NN(C(=O)CCC(=O)O)C(c3cccc(F)c3)C2)c1 (stereo unspecified) | 2.3 | -0.1
COc1ccc(-c2noc(CNC(C)(C)C)n2)cc1OC | -0.6 | 0.3
COc1ccc(-c2nc3n(c(=O)c2C#N)CCS3)cc1 | 0.66 | -0.3
C=CCN1C(=O)/C(=C/c2c(Sc3ccccc3)nc3ccccn3c2=O)SC1=S | . | 7.5
O=C(CSc1nnc2c(n1)[nH]c1ccccc12)OCN1C(=O)c2ccccc2C1=O | -0.27 | 2.5
CCc1ccc(C(=O)NCC2(c3ccccc3)CCOCC2)o1 | 2.1 | -0.6
O=C1c2cccc3c(N4CCCCC4)ccc(c23)C(=O)N1c1ccccn1 | -6.2* | 18

Complete entries as entered above. Order of screens: LANA-nucl inh, BasE inh
`C=CCn1nnnc1SCC(=O)c1ccc(Cl)c(Cl)c1` is listed as -1.1, -3.4
`CS(=O)(=O)Nc1cccc(C2=NN(C(=O)CCC(=O)O)C(c3cccc(F)c3)C2)c1` (stereo unspecified) is listed as 2.3, -0.1
`Cc1ccc(-n2c(SCC(=O)NC(C)(C)C)nc(O)cc2=O)cc1` is listed as 2.6, -23

Next records follow.
SMILES | LANA-nucl inh | BasE inh
Cc1ccc(/C=N/NC(=O)C2=NNC(=O)C2C)o1 (stereo unspecified) | 0.023 | 0.9
NC(=O)CN1CCN(C/C=C/c2ccccc2)CC1 | 0.6 | 0.9
C=CCNC(=O)c1ccc2c(c1)nnn2C | -0.34 | 1.0
COc1cccc(OC)c1CN(C)C(=O)c1cnccc1C(F)(F)F | -0.4 | .
CCOC(=O)c1c(C)[nH]c2ccc(C)cc2c1=O | 0.22 | 1.1
CCS(=O)(=O)c1ccc(O)c(NC(=O)CCCC(=O)O)c1 | . | 1.2
CN(C)S(=O)(=O)c1ccc(S(=O)(=O)N2CCCC(C(=O)NC(C)(C)C)C2)cc1 (stereo unspecified) | -1.3 | 0.3
CC1CN(S(=O)(=O)c2cccc(C(=O)NCC(c3ccco3)N(C)C)c2)CC(C)O1 (stereo unspecified) | . | 2.8
C/C(=C\C(=O)c1ccc(C)o1)Nc1ccc(C(=O)O)cc1C | 1.1 | 11
CCCCCCn1c(COc2ccccc2F)nnc1SCC(=O)/C(C#N)=C(\C)N | . | 1.1
Cc1ccc(CC(=O)NCCN(C)C)cc1 | -1.5 | -0.6
O=C(NCc1ccco1)c1ncoc1-c1ccc2ccccc2c1 | -0.89 | 1.9
O=C(Nc1ccccc1C(=O)N/N=C/c1ccco1)c1ccc(Cl)cc1 | 0.13 | -2.7
O=C(O)c1ccccc1S(=O)O | 1.2 | 0.2
NCCc1ccc(O)c(O)c1 | 0.13&-0.95 | -2.6
Cc1ccc(N2C(=O)CC(N3CCN/C3=C3/CC/C(=C\c4ccccc4)C3=O)C2=O)cc1 (stereo unspecified) | . | -1.3
CN(C1CCCCC1)S(=O)(=O)C1CCS(=O)(=O)C1 (stereo unspecified) | . | -1.1
O=C(Cn1cc(C(F)(F)F)ccc1=O)N1CCCC1 | . | 0.0
O=C1/C(=C\c2ccco2)N=C(SCc2nc3sc4c(c3c(=O)[nH]2)CCCC4)N1c1ccc(OC(F)F)cc1 | . | -1.6
COc1ccc(NC(=O)CSCc2cc(=O)[nH][nH]2)cc1 | -0.58 | 1.9
COc1cccc(/C=N/NC(=O)c2oc3nc(-c4ccccc4)cc(-c4ccco4)c3c2N)c1 | -8.6 | 9.0
Cc1c(C(=O)OC(C)C(=O)N(C)c2ccccc2)oc2ccccc12 (stereo unspecified) | . | -0.3
CC1=NN(Cc2ccccc2)C(=O)/C1=C\c1ccc(N(C)C)cc1 | 0.86 | -1.4
Nc1ccc2nc(SCc3cccc(F)c3)sc2c1 | . | -0.9
c1ccc2c(c1)oc1c(N3CCNCC3)ncnc12 | . | -1.5
COc1ccc(C2C(=O)c3cc(OC)c(OC)cc3C2c2ccccc2)cc1OC (stereo unspecified) | . | 0.8
COc1ccccc1NC(=O)/C=C1\SCC(=O)N1C | . | -3.2
CN1CCN(c2ccc(-c3ccnn3C(=O)Nc3cccc(C(F)(F)F)c3)cc2)CC1 | -0.23 | .
O=C(Oc1ccccc1)c1ccc(F)cc1 | 0.5 | -1.7
Cc1ccc(-n2nc3c(c2NC(=O)COc2ccc(Cl)cc2)CSC3)c(C)c1 | . | 0.9
NC(=O)C1CCN(C(=O)c2ccc(NC3=NC4CS(=O)(=O)CC4S3)cc2)CC1 (stereo unspecified) | 2.7 | 0.2
CC(=O)NCCC(=O)O | . | 1.3
CC(C)(C)Cc1nc(-c2ccccc2)no1 | 1.3 | -1.6
CN(Cc1ccccc1)S(=O)(=O)c1cn(C)cn1 | -1 | .
CCn1cc(C(=O)N2CCN(c3ccc(F)cc3)CC2)c(=O)c2cc(S(=O)(=O)N(C)C)ccc21 | 0.27 | 1.0
CC(C)c1ccc2oc(-c3cccc(N)c3)nc2c1 | -0.49 | 3.8
O=C(Nc1ccc(Br)c(C(F)(F)F)c1)c1ccc(=O)[nH]c1 | . | -1.1
Cc1ccc(C(=O)OCC(=O)N2CCOCC2)cc1 | . | 1.1
CCOC(=O)c1c[nH]c2ccc(C)cc2c1=O | -1.3 | .
Cc1ccc(-n2c(SCC(=O)C(C)(C)C)nc3ccccc3c2=O)cc1 | . | 0.6
COc1ccc(CC(=O)Nc2cc(C)c3c(=O)oc4ccccc4c3n2)cc1 | -0.059 | -1.9
O=C(COC(=O)C1CC1)Nc1ccccc1 | . | -0.2
CC(=O)Oc1ccc2nc(-c3cccs3)oc(=O)c2c1 | 0.17 | 0.4
CCOC(=O)c1oc2nc(-c3ccco3)cc(-c3ccco3)c2c1N | . | -0.8
CN(C(=O)COC(=O)c1ccc2c(=O)n3c(nc2c1)CCC3)c1ccccc1 | . | 0.8
COc1ccc(/C=C(/C#N)S(=O)(=O)c2ccccc2)cc1Cn1nc(C)cc1C | 0.95 | 0.3
Cc1ccc(OC(=O)C(C)(C)C)cc1C | 1.1 | 0.8
CC(Oc1ccc(F)cc1)c1n[nH]c(=S)o1 (stereo unspecified) | . | 1.7
CCC1CCCCN1C(=O)c1sc2nc(C)cc(C)c2c1N (stereo unspecified) | -1.2 | 0.1
O=C1CCCC2=C1C(c1ccccc1)C1=C(CCCC1=O)O2 | -0.58 | 0.0
CC1(C)Cc2ccccc2-c2c1c(=O)n(Cc1ccccc1)c1n[nH]c(=S)n21 | . | 1.7
COc1ccc(-n2c(=O)c3c4c(sc3n3c(C)nnc23)COC(C(C)C)C4)cc1 (stereo unspecified) | -0.84 | -0.8
O=C(CSc1nnc2c(n1)[nH]c1ccccc12)c1ccccc1 | . | 0.0
COC(=O)/C=C1\SCC(=O)N1CC(=O)NCCc1ccc(OC)c(OC)c1 | . | -0.5
COc1ccc(Nc2nc(OC)nc(OC)n2)cc1 | -0.64 | -2.1
CCOC(=O)c1c(C#N)c(SCC(=O)Nc2ccc(OC)cc2)nc2c1CN(CC)CC2 | 1.7 | -3.9
N=C(N)SCC(=O)Nc1ccccc1 | 0.021 | 5.2
COC(=O)c1ccccc1NC(=O)Cn1sc2ccccc2c1=O | . | 1.3
CCCCNC(=S)Nc1ccc(SC(F)F)cc1 | . | -1.0
CCCNC(=O)COc1ccc(OC)cc1 | -0.75 | 0.6
Carrying on:
SMILES | LANA-nucl inh | BasE inh
COc1ccc(C(=O)Nc2cc3c4c(c2)CCN4C(=O)CC3)c(OC)c1 | -0.78 | 0.8
CCOC(=O)N1CN(Cc2ccccc2)Cc2c1oc1ccccc1c2=O | 0.19 | 5.3
Cc1ccsc1CN(C)C(=O)Cn1c(C)nc2scc(-c3cccs3)c2c1=O | . | -0.3
COC(=O)Sc1nnc(-c2ccc(Br)cc2)o1 | . | 2.7
CN1CCc2c(sc(NC(=O)c3ccc(S(=O)(=O)N(C)C)cc3)c2C(N)=O)C1 | 0.15 | -9.4
COC(=O)CNC(=O)c1ccccc1C | . | -1.0
O=C(/C=C/c1ccc(O)c(O)c1)OC(Cc1ccc(O)c(O)c1)C(=O)O (stereo unspecified) | -0.15 | 11
COCc1c(N)c(C)nc(Cl)c1C#N | -1.1 | 2.2
NC(=O)c1ccccc1NS(=O)(=O)c1ccccc1 | -0.12 | 1.4
CN(c1cc(C(F)(F)F)ccn1)N1C(=O)CSCC1=O | . | 0.3
CC1=CC(C)(C)NC(=O)N1c1ccc(C)cc1 | 0.67 | -0.6
COc1ccc(S(=O)(=O)N2CCc3ccccc32)cc1C(=O)Nc1ccc2c(c1)OCCO2 | . | 1.4
CCOCCCNc1n[nH]c(=S)s1 | . | 0.5

Not all compounds are listed. The share of hits here may be higher or lower than overall.
